Screening results as filed in PubChem.
Cruzain Triton – inhibitors of Trypanosoma cruzi cruzain with detergent; purified cruzain, Z-FR-AMC fluorescence, 0.01% Triton; Potency, µM, without a hit: max response, negative = inhibition, most hits filed as inhibitors; 0.43% of 200,000 active; AID 1478;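 note: plate controls were neutral wells for no effect and buffer without enzyme for full effect; nearly all actives have a fitted effect of over 40% in size; top concentration of the series not given in the record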
Target sequence (P25779 123-467 limits assumed): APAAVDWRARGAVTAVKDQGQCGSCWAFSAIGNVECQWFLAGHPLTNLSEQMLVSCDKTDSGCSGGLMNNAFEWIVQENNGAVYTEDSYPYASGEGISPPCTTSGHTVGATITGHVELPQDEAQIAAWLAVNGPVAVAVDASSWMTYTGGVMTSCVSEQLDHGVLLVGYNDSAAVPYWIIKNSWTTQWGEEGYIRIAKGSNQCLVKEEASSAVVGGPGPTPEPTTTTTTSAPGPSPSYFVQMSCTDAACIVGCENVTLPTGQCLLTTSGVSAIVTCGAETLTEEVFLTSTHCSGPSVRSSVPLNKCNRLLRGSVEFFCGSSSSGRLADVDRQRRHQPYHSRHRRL
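Read-out: AMC fluorescence (360 nm excitation, 450 nm emission), four reads over 2 min, first-to-third difference used. Conditions: cruzain 1.5 nM, Z-FR-AMC 2 uM, pH 5.5 acetate, 5 mM DTT, 0.01% Triton X-100.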
Cruzain inh noDet – blocks cruzain activity in detergent-free assay; P25779; purified cruzain, Z-FR-AMC fluorescence, no detergent; Potency, µM, inactives show max response, negative = inhibition, actives largely listed as inhibitors; 2.3% of 200,000 active;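 note: plate controls were enzyme without inhibitor for no effect and buffer without enzyme for full effect; nearly all actives have a fitted effect of over 40% in size; top concentration of the series not given in the record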
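Detergent-free condition (0.00005% Triton X-100) in acetate buffer pH 5.5 with DTT. 1.5 nM enzyme and compound were pre-mixed 15 min, then 2 uM Z-FR-AMC substrate added; reaction progress from fluorescence change between first and third reads (60 s).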
MARV entry inh – Marburg virus entry inhibition; Marburg virus pseudotyped entry inhibition, cell reporter; control for the full effect not named in the record; about a third of the inactives were read at about 46 µM; Potency, µM (series often up to 37.8 µM), for the others: at the highest dose activity change, negative = inhibition, usual class: inhibitors; 1.8% of 300,000 active; active = well fitted inhibition curve with a large enough effect; inconclusive = small, poorly fitted or top-dose-only effect, or effect the other way; inactive = flat fitted curve, though single readings scatter; tested in HEK293 cells; about a fifth of its hits are not listed in these tables; note: % is set by controls: 0 for no effect and ±100 for the full control effect; luciferase read-out
SARS PLpro yeast – inhibitors of SARS-CoV papain-like protease in yeast | S. cerevisiae expressing SARS-CoV PLpro, growth rescue; control for the full effect not named in the record | Potency, µM (titrated, usually from 32.9 µM), for the others: at the top dose activity, positive = growth rescue | 0.19% of 330,000 active; active means well fitted rising curve with a large enough effect; inconclusive means small, poorly fitted or top-dose-only effect; inactive means no such curve, though single readings can be large or run the other way; note: 0% is about no effect; nearly all actives have a fitted effect of over 55% in size; growth read by luminescence after 48 h
NS1 function inh – inhibitors of influenza NS1 protein function; Potency, µM (highest dose often 46.1 µM), for inactives: at the top dose activity, positive = more growth; S. cerevisiae slowed by influenza A NS1, growth recovery by OD600; 0.4% of 270,000 active; active means well fitted rising curve with a large enough effect; inconclusive means small, poorly fitted or top-dose-only effect; inactive means no such curve, though single readings can be large or run the other way; note: nearly all actives have a fitted effect of over 50% in size
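In this qHTS, NS1 from influenza A is expressed in budding yeast, where it slows growth. Cells are switched from glucose to 2% galactose medium (pH 6.0, -URA), treated with compound, and growth recovery is read at OD600.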
RE007 growth inh – less growth of the S. pombe RE007 Vpr strain; S. pombe RE007 Vpr strain, BacTiter-Glo ATP luminescence, 24 h; control for the full effect not named in the record; Potency, µM (doses to about 92.2 µM), for the others: at the highest dose activity change, negative = less growth; 0.21% of 360,000 active; AID 651644; active = well fitted falling curve with a large enough effect; inconclusive = small, poorly fitted or top-dose-only effect; inactive = no such curve, though single readings can be large or run the other way;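 note: % is set by controls: 0 for no effect and ±100 for the full control effect; nearly all actives have a fitted effect of over 50% in size; the assay follows cell death caused by Vpr and the record does not say whether a fall means rescue or toxicity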
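Fission yeast RE007 carrying one integrated HIV-1 vpr copy, seeded at OD 0.01 in PMG+AL medium with 23 nL pinned compound. Grown 24 h at 30 degrees; viability read by BacTiter-Glo luminescence after 5 min.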
StopGo reporter – FMDV 2A StopGo reporter, luciferase signal; human cells with a luciferase reporter of 2A StopGo recoding; control for the full effect not named in the record; Potency, µM (titrated, usually from 57.9 µM), for the others: at the top dose signal change, negative = less light; 1.2% of 410,000 active; AID 1159524; active = well fitted falling curve with a large enough effect; inconclusive = small, poorly fitted or top-dose-only effect; inactive = no such curve, though single readings can be large or run the other way; tested in HEK293T cells; note: % is set by controls: 0 for no effect and ±100 for the full control effect; nearly all actives have a fitted effect of over 45% in size; luciferase light after 4 h
Lassa entry inh – inhibitors of Lassa virus binding or cell entry; Lassa virus pseudotype entry inhibition, cell reporter; control for the full effect not named in the record; Potency, µM (top dose mostly 37.9 µM), for the others: at the top dose activity change, negative = inhibition, actives largely listed as inhibitors; 1.2% of 300,000 active; AID 540256; active means well fitted inhibition curve with a large enough effect; inconclusive means small, poorly fitted or top-dose-only effect, or effect the other way; inactive means flat fitted curve, though single readings scatter; tested in HEK293 cells; note: % is set by controls: 0 for no effect and ±100 for the full control effect; nearly all actives have a fitted effect of over 50% in size; luciferase read-out
* hit, by the source's call; ? = inconclusive; . = no result given; & = joins results of further samples; [ ] = dose if it differs, or a comment. Unless noted, calls come from the whole dose curve; as a rule, active = well fitted curve in the direction sought with a large enough effect; inconclusive = small, poorly fitted or top-dose-only effect, or another doubt; inactive = no such curve, though single readings can be large; an effect the other way counts as inactive or inconclusive. Potency is the fitted concentration of half-maximal effect. Not a hit list; 4.6% or so of the library scored in one or more.

SMILES	Cruzain Triton	Cruzain inh noDet	MARV entry inh	SARS PLpro yeast	NS1 function inh	RE007 growth inh	StopGo reporter	Lassa entry inh
CCOC(=O)c1c(C)nc(SC)c(C#N)c1-c1ccccc1	-6.1%	-5%	2%	-41%	-33%	-2%	-20%	-2%
Cc1csc(N/N=C/c2ccc([N+](=O)[O-])cc2)n1	.	.	?	-3%	-12%	-16%	9%	-5%[46.1 µM]
COc1ccc(Nc2nc(NCCO)nc(OC)n2)cc1	1.1%	-6%	1%	2%	-1%	-1%	27%	13%
CS(=O)(=O)N(CC(N)=O)Cc1ccc(Cl)cc1	5.1%	-6%	0%	2%	-3%	-6%	.	-10%
COC(=O)c1c(C)[nH]c(C(=O)CN2CCOCC2)c1C	-0.4%	-5%	2%	1%	-2%	7%	0%	-1%
CCCCCN1C/C=C\C(c2ccc(OC)cc2)N(Cc2ccc(F)cc2)C(=O)C1 (stereo not drawn)	.	.	.	-3%	?	-19%	-20%	.
CCOCC(=O)Nc1ccc([N+](=O)[O-])cc1C	.	.	10%[46.1 µM]	0%	.	22%	-15%	22%
O=C(CSc1nc(-c2ccc(F)cc2)cs1)NCCN1C(=O)CSC1=O	.	.	-2%[46.1 µM]	-2%	.	11%	-9%	.
COc1ccc(/C=N/NC(=O)Nc2cccc3nsnc23)c(OC)c1	-0.1%	15%	-5%	-1%	1%	4%	-18%	0%
CC(C)(C)CC(=O)Nc1ccccc1N1CCN(c2ccccc2)CC1	.	.	?	-7%	.	6%	-9%	?
CCn1c(SCC(=O)NCC2CCCO2)nc2c(c1=O)SCC2 (stereo not drawn)	.	.	17%	-2%	-6%	12%	-20%	9%
O=C(C1CCN(S(=O)(=O)c2cccc3cccnc23)CC1)N1CC=C(c2ccccc2)CC1	-4.0%	-5%	2%	-7%	?	.	.	.
COc1ccc(Cl)cc1NC(=O)CSc1cccc[n+]1[O-]	.	.	15%	3%	.	-5%	3%	7%
Cc1cc(SCC#N)nc2ccccc12	.	.	-12%[46.1 µM]	0%	-6%	-15%	7%	23%[46.1 µM]
COc1ccc(NC(=O)Cn2nc(C(=O)O)c3ccccc3c2=O)cc1S(=O)(=O)N1CCCCC1	.	.	1%[46.1 µM]	1%	.	-7%	5%	-13%[46.1 µM]
CCC(C)(C)NC(=O)c1cc(C(=O)OC)cc([N+](=O)[O-])c1	5.8%	-1%	-12%	4%[6.58 µM]	10%	-5%[3.69 µM]	3%	9%
Cc1cccc(C)c1NC(=O)c1nc(S(C)(=O)=O)ncc1N(Cc1ccc(F)cc1)Cc1ccco1	-4.7%	-6%	-25%[46.1 µM]	.	.	.	0%	4%[46.1 µM]
Cc1ccc(SCCC(=O)NCCSCc2ccccc2C)cc1	-2.4%	7%	3%	-25%	-133%	-10%	-22%	-13%
O=C(C(=O)N1CCc2ccccc2C1)c1cn(CC(=O)N2CCCC2)c2ccccc12	-0.8%	?	-19%	21%	6%	6%	29%	?
NC(=S)N/N=C/c1ccccc1OC(=O)c1cc2ccccc2oc1=O	.	.	.	15%	-7%	11%	19%	.
CC(=O)N1c2ccc(S(=O)(=O)NCCC(=O)Nc3ccc(C)cc3Br)cc2CC1C (stereo not drawn)	-3.8%	-4%	.	.	.	.	-5%	-1%[46.1 µM]
CC1CCN(c2nnc(NC(=O)Cn3c(=O)oc4ccccc43)s2)CC1	5.9%	?	.	-1%	2%	6%	-22%	.
COC(=O)c1cccc(NC(=S)NCc2ccco2)c1	.	.	-8%[46.1 µM]	-1%	1%	-16%	52%[activator]	4%
O=C(NNS(=O)(=O)c1ccccc1)c1cccc(F)c1	.	.	.	-13%	-27%	12%	34%[activator]	.
CCN(CC)C(=O)CSc1nc2c(sc(=S)n2Cc2ccco2)c(=O)n1-c1ccccc1	-2.5%	3%	?	-1%	24%	-2%	0%	-18%
Continuation:
SMILES	Cruzain Triton	Cruzain inh noDet	MARV entry inh	SARS PLpro yeast	NS1 function inh	RE007 growth inh	StopGo reporter	Lassa entry inh
COCCN(C(=O)CC1CCCC1)c1c(N)n(CC(C)C)c(=O)[nH]c1=O	.	.	2%	-2%	.	-20%	-6%	-5%
Cc1ccc(N(C)C(=O)c2ccc3c(Cl)c4c(nc3c2)CCC4)cc1C	-2.7%	?	26%	-22%	-8%	-5%	-18%	3%
O=C1c2cccc(Cl)c2C(=O)N1c1ccccn1	.	.	-3%[46.1 µM]	.	.	2%	-2%	2%
CC(=O)Nc1c(F)cc(Br)cc1F	.	.	?	-1%	1%	142%	11%	?
COCCn1c(SCC(=O)N2CCCCC2)nc2c(c1=O)SCC2	.	.	26%	4%	18%	3%	-15%	?
O=C(c1ccc2c(c1)N(Cc1ccccc1Cl)C(=O)c1ccccc1S2)N1CCCC1	-0.7%	14%	.	.	.	.	4%	-30%[46.1 µM]
COc1ccc(CC(=O)N(C)Cc2ccc(C(C)(C)C)cc2)cc1S(=O)(=O)N1CCOCC1	.	.	?	0%	21%	-23%	?	?
Nc1c(S(=O)(=O)c2ccccc2)cnc2c(-c3ccc(F)cc3)cnn12	-2.4%	-25%	?	10%	6%	4%	29%	1%
Cc1c(C(=O)NCc2ccccc2)oc2ccc(S(=O)(=O)N3CCCC3)cc12	-4.1%	3%	.	4%	-10%	-10%	?	.
COc1cc(C(=O)Nc2ccc3c(c2)Cc2ccccc2-3)cc(OC)c1OC	-3.2%	-2%	?	8%	16%	6%	-10%	0%
CC(NC(=O)NC1CCCCC1)C(c1cccs1)N1CCN(C)CC1 (stereo not drawn)	-6.5%	-6%	.	1%	-15%	-5%	-7%	.
O=C(Nc1ccccc1)c1ccc(Cl)c(S(=O)(=O)Nc2ccccc2)c1	-8.6%	16%	?	.	.	.	69%[activator]	-18%[46.1 µM]
CC(=O)N1c2ccc(S(=O)(=O)NCc3ccco3)cc2CC1C (stereo not drawn)	.	.	.	0%	5%	-11%	33%[activator]	.
COc1ccc(CNC(=O)c2cn(-c3cccc(OC)c3)c(=O)c3ccccc23)cc1	-2.5%	-3%	.	.	.	.	-16%	0%[46.1 µM]
CCc1cc2c(SCC(=O)c3ccccc3)ncnc2s1	-0.2%	9%	26%[46.1 µM]	20%	3%	-13%	25%	14%
COc1cn(-c2ccccc2)nc1C(=O)Nc1ccccc1	.	.	?	-9%	-41%	?	49%[activator]	.
CCC(=NCc1cccnc1)c1c(O)n(Cc2ccccc2)c(=O)[nH]c1=O	3.9%	-2%	-3%	-5%	-51%	-13%	?	-21%
COc1cccc(-n2c(CN3CCN(C)CC3)nc3ccc([N+](=O)[O-])cc3c2=O)c1	-9.8%	-17%	29%	-5%	?	20%	-19%	-4%
Nc1nc(-c2ccc(Cl)cc2Cl)cn1N	14%	-18%	21%	0%	?	15%	28%	?
CCN1CCN(C(=O)c2cc(-c3cccnc3)nc3ccc(Br)cc23)CC1	-3.4%	-9%	-28%	-6%	-1%	-4%	0%	?
Cc1cccc(N2CCN(C(=O)c3ccc4c(c3)OCCO4)CC2C)c1 (stereo not drawn)	.	.	4%[46.1 µM]	0%	.	-9%	7%	-2%
Cc1ccccc1NC(=O)CN1CCC(C(=O)c2ccc3c(c2)OCCO3)CC1	.	.	6%[46.1 µM]	-4%	-5%	-9%	-13%	-24%
O=C(NCCCn1ccnc1)c1cc(-c2ccc3c(c2)OCO3)on1	0.7%	-1%	11%	17%	-3%	0%	37%[activator]	0%
Cc1c(C(=O)N2CCOCC2)sc2ncnc(N3CCc4ccccc4C3)c12	-3.1%	13%	-5%	3%	-14%	15%	-19%	-27%
O=C1NNC(c2ccccc2)=N/C1=C\c1ccco1	.	.	3%[46.1 µM]	1%	2%	2%	-19%	11%[46.1 µM]
Remaining list, next part:
SMILES	Cruzain Triton	Cruzain inh noDet	MARV entry inh	SARS PLpro yeast	NS1 function inh	RE007 growth inh	StopGo reporter	Lassa entry inh
S=C(NCc1ccco1)N1CCN(C(c2ccccc2)c2ccccc2)CC1	-0.2%	6%	?	3%	-1%	-4%	.	?
COc1ccc(C(=O)CN2C(=O)NC3(CCCc4ccccc43)C2=O)c(OC)c1 (stereo not drawn)	.	.	19%	-3%	-9%	2%	41%[activator]	6%
CCN(CC)CCNc1ncnc2c1sc1nc(N3CCOCC3)c3c(c12)CC(C)(C)SC3	0.3%	-3%	-8%	5%	13%	-8%[3.69 µM]	0%	4%
O=C(Nc1ccc(Cl)cc1)Nc1nnc(/C=C/c2ccccc2)s1	.	.	7%[46.1 µM]	0%	2%	-21%	-22%	-2%
Cc1cc(C(=O)N/N=C/c2c(C)n(C)c3ccccc23)n[nH]1	-7.6%	-2%	?	1%	-4%	-19%	-21%	10%
CCc1c(C)nc(SCC(=O)N2CCc3ccccc32)[nH]c1=O	2.5%	-7%	.	8%	?	.	.	.
CC(CNC(=O)c1nnc(Cc2ccc(F)cc2)o1)c1ccccc1 (stereo not drawn)	-2.3%	-3%	.	.	.	.	-6%	-9%[46.1 µM]
CC1(C)CC(Nc2ccc(Nc3ccccc3)cc2)CC(C)(C)N1	-3.4%	-6%	.	-5%	-4%&9%	.	-13%	.
COc1cccc(/C=N/NC(=O)c2c(-c3ccccc3)noc2C)c1O	2.1%	0%	11µM*	-1%	-65%	27%	-13%	10µM*
Cc1cccc(C2CC(c3ccc(F)cc3)Nc3nc(N)nn32)c1 (stereo not drawn)	-2.2%	-5%	.	-12%	5%	18%	-16%	.
Cc1ccc(CNC(=O)c2cn(C)c3ccc(S(=O)(=O)N4CCC(C)CC4)cc3c2=O)cc1	-0.3%	-16%	3%[46.1 µM]	.	.	.	-13%	16%[46.1 µM]
COCCNC(=O)CCCCCN1C(=O)CCC1=O	-8.0%	-10%	-5%	16%	7%	2%	3%	-2%
Cc1ccc2cc(CCNC(=O)c3cccs3)c(=O)[nH]c2c1C	-5.7%	-2%	?	-11%	-6%	-2%	1%	?
COc1ccccc1Oc1ccc(S(=O)(=O)Nc2cccnc2)cc1	3.8%	-12%	?	3%	-31%	8%	-21%	?
CN1CCN(S(=O)(=O)c2ccc(Cl)cc2)CC1	.	.	11%	4%	25%	8%&3%	-22%&-16%	9%[46.1 µM]
COc1cc(NC(=O)c2cccs2)c(C(=O)OCC(=O)NC(C)c2ccccc2)cc1OC (stereo not drawn)	-5.4%	?	-21%	-7%	-11%	3%	?	?
CCCCOc1ccc(CNC(=O)c2cnc3sc(N4CCOCC4)nn3c2=O)cc1	-0.7%	1%	.	.	.	.	-2%	0%[46.1 µM]
